Screens (PubChem)
PrP 5UTR inh: inhibition of PrP 5' UTR reporter expression | cell-based PrP 5' UTR mRNA reporter, plate reader | inhibition, % (no concentration beside the values) | 340,000 compounds, 0.35% hits;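 active = every replicate at 50% or more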;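 note: 0 = median of the neutral control wells; tested in H4 reporter cells; numbers are from one replicate; inactives centre near -14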
BJeLR viability: MLPCN primary cell-based screen for lethality selective to Ras in HRASV12 cells. BJeLR (HRASV12) viability, CellTiter-Glo ATP luminescence, 48 h; reference of the scale not given here. inhibition, % (test concentration not listed). 300,000 compounds, 0.17% hits;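 active = replicate mean above 50%; inconclusive = above 50% but judged a plate artefact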;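 note: 50 nL library stock added to about 25 µL; numbers are from one replicate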
RN4220 kill: growth inhibition of S. aureus RN4220, primary screen, OD600; 16 h; inhibition, % (no concentration beside the values); 330,000 compounds, 0.33% hits;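 active = z-score of -3 or lower and OD600 up to 0.18 on both plates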;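 note: plate controls were untreated cells for no effect and reference antibiotic for full effect; stock transfer was 100 nL into about 80 µL; one replicate is shown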
Autofluor counter: counter-screen for toxin protease inhibitors: compound fluorescence; compound autofluorescence counterscreen, microsphere flow cytometry; hits give high values; fluorescence intensity (no concentration beside the values); 360,000 compounds, 3.1% hits;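 active = at least 3 SD above the mean of all compounds, about 16000 in these data; inconclusive = too few beads counted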;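 note: 100 nL of 1 mM stock went into each well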
Mtb hypoxia inh: PubChem AID 1159583; M. tuberculosis hypoxia-regulated fluorescent reporter, fluorescence; fluorescence inhibition, % (concentration not given with the values); 300,000 compounds, 0.1% hits;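 active = 35 to 45% if threefold the growth effect, above 45% if 1.5-fold the growth effect; inactive = the rest, general growth blockers included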;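 note: wells of about 50 µL received 100 nL stock; 0% = vehicle wells and 100% = reference inhibitor wells; whole bacteria with a GFP reporter of the hypoxia response; strong numbers were not always called active; many hits fall short of the cut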
ugtP null kill: growth inhibition of ugtP-null S. aureus, primary screen, RN4220 ugtP deletion, OD600; 16 h; some inactives read as strong as hits; growth inhibition, % (concentration not given with the values); 330,000 compounds, 0.54% hits; AID 1259309, 2017;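 active = z-score under -3 and OD600 up to 0.15 on both plates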;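 note: plate controls were untreated wells for no effect and antibiotic for full effect; wells of about 80 µL received 100 nL stock; the first replicate is given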
Mtb hypoxia inh growth: further read-out of Mtb hypoxia inh, marked with its call; growth inhibition, %; measured here: M. tuberculosis growth (absorbance);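 0% = vehicle and 100% = reference antibiotic; read after six days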
* marks the source's active call; other numbers are inactive results; ? = inconclusive; / = not tested or not shown; & = joins results of further samples.

mol	PrP 5UTR inh	BJeLR viability	RN4220 kill	Autofluor counter	Mtb hypoxia inh	Mtb hypoxia inh growth	ugtP null kill
CC(C)(C)OC(=O)NC(Cc1ccccc1)C(=O)N1CCC(C(=O)O)CC1 (centres undefined)	/	/	3.8&7.8	/	7	7	-1&0
COc1ccc(C/C(N)=N/OC(=O)c2ccc(Cl)cc2)cc1	-13	3	/	4678	/	/	/
CCCOc1ccc(C2C(C(=O)c3ccc(C)o3)=C(O)C(=O)N2CCN2CCOCC2)cc1OC (centres undefined)	-8	-2	-1.1	10167	3	12	-8
CCc1ccc(C(=O)NNC(=O)c2ccc3c(=O)n4c(nc3c2)CCC4)cc1	-8	12	-2.4	5057	-7	3	-10
CC(=O)Nc1cc(NC(C)=O)ncn1	0	0	/	2808	/	/	/
COc1ccc(C2NC(=O)c3ccccc3O2)cc1 (centres undefined)	-17	0	2.2	3923	0	7	-5
Cn1nc(N2CCN(S(=O)(=O)c3ccccc3)CC2)c(=O)n(C)c1=O	-5	/	6.0	8163	4	2	11
CCOC(=O)C1CCN(C(=O)c2cccc(S(=O)(=O)N3CCc4ccccc43)c2)CC1	-22	/	7.4	7900	5	-4	-2
Cc1c(CNCCc2ccc(Cl)cc2)c(C(=O)O)c(C)n1-c1ccccc1	-9	15	-3.5	3975	1	3	2
O=C(NC(=S)N1CCCC(C(F)(F)F)C1)c1ccc(F)cc1 (centres undefined)	-20	-7	-4.4	5382	6	5	11
O=S(=O)(c1cccc(C(F)(F)F)c1)N1CCN(C(=S)NC2CC2)CC1	-18	2	3.3	2878	8	6	-1
O=C(CNS(=O)(=O)c1ccccc1)NN=Cc1ccc(O)cc1	/	/	1.2	/	2	6	4
O=C(COc1ccccc1)NN=Cc1ccc(O[C@@H]2O[C@H](CO)[C@@H](O)[C@H](O)[C@H]2O)cc1	/	/	1.4	/	-6	-10	-3
O=C(CCCN1C(=O)NC2(CCCC2)C1=O)Nc1ccc(F)cc1	-20	/	3.2	5361	2	2	0
c1ccc2nc(N3CCOCC3)c(N3CCCC3)nc2c1	-25	/	4.7	3572	13	8	10
O=[N+]([O-])c1ccc(Oc2ccc(/C=N/O)cc2)nc1	-11	2	/	4278	/	/	/
CCC1CCCCN1C(=S)NC(=O)c1cc(S(=O)(=O)N2CCOCC2)ccc1C (centres undefined)	-5	-8	7.2	5135	7	10	3
CCOc1ccc(N(CC(=O)NC2CCCCC2)C(=O)Cn2nnc(-c3ccc(C)o3)n2)cc1	-25	-8	0.0	5542	-7	0	5
COc1cccc(CC(=O)Nc2sc3c(c2C(N)=O)CCCC3)c1	-16	2	1.8	3825	-1	4	-3
CC1CC(C)CN(c2cc3c(cc2[N+](=O)[O-])C(=O)N(c2ccccc2)C3=O)C1 (centres undefined)	-16	-17	6.5	2501	1	0	6
COc1ccccc1C(C)NC(=O)CCC(=O)N1CCN(S(=O)(=O)c2ccc(Cl)cc2)CC1 (centres undefined)	1	/	4.6	4516	6	6	3
CCOC(=O)C1(Cc2ccccc2)CCN(Cc2cn(CC(=O)OC)c3ccccc23)CC1	-4	0	9.5	2619	10	8	7
CCOc1ccc(NC(=O)c2nsc(Cl)c2Cl)cc1	-126	-9	4.7	4591	4	10	2
COc1ccccc1CNC(=O)COC(=O)c1cc(S(=O)(=O)N2CCOCC2)ccc1Cl	-23	-4	-0.3	5447	-11	4	0
O=C(COC(=O)c1ccc(Br)o1)NC1CCCc2ccccc21 (centres undefined)	-8	/	1.9	3852	2	4	-1
CC(=O)Nc1ccc(S(=O)(=O)N2CCC(NC(=O)C(Cc3cccc(F)c3)NC(C)=O)CC2)cc1 (centres undefined)	-10	-6	3.1	4535	0	0	-3
CCCNC(=O)Cn1c(=O)n(C)c2ccccc21	1	-1	1.8	6069	-7	-5	8
Cc1cc(C)nc(N2CCC(C(=O)NNC(=O)c3ccc(Cl)cc3)CC2)n1	-9	9	0.8	4066	4	4	7
Cc1ccc2nc3cc([N+](=O)[O-])cc([N+](=O)[O-])c3cc2c1	-50	/	21	4075	8	6	8
COc1cc(CN2CCNC(=O)C2CC(=O)N2CCCN(C(C)=O)CC2)cc(OC)c1 (centres undefined)	-14	-2	-0.6	5398	8	-3	1

Random excerpt: two compounds from above
mol	PrP 5UTR inh	BJeLR viability	RN4220 kill	Autofluor counter	Mtb hypoxia inh	Mtb hypoxia inh growth	ugtP null kill
CC(C)(C)OC(=O)NC(Cc1ccccc1)C(=O)N1CCC(C(=O)O)CC1 (centres undefined)	/	/	3.8&7.8	/	7	7	-1&0
COc1ccc(C/C(N)=N/OC(=O)c2ccc(Cl)cc2)cc1	-13	3	/	4678	/	/	/

More compounds.
mol	PrP 5UTR inh	BJeLR viability	RN4220 kill	Autofluor counter	Mtb hypoxia inh	Mtb hypoxia inh growth	ugtP null kill
COC(=O)c1c(C)noc1-c1snnc1C	/	-4	-3.1	6415	-6	-3	-3
COc1c(Br)cc([N+](=O)[O-])c(OC)c1C(=O)NC(=O)Nc1cc(Cl)cc(Cl)c1	-13	4	6.1	3833	8	-1	-23
Cc1nc(SCC(=O)Nc2ccc(S(=O)(=O)N3CCOCC3)cc2)c2c(C)c(C)sc2n1	19	/	3.7	3533	-1	6	-1
O=C(Nc1cccc2ccccc12)N1CCCN(c2c(Cl)cncc2Cl)CC1	-4	9	14	4333	-1	6	-12
Cc1cccc(Cn2c(=O)oc3ccc(C)cc32)c1	-11	-3	4.6	3761	15	14	4
COc1cccc(C2CCCN2Cc2nc(CCC(C)C)no2)c1 (centres undefined)	-3	7	0.2	4687	6	7	14
Cc1ccc(N(CC(=O)NCCc2ccc(F)cc2)S(=O)(=O)c2ccc(Cl)c([N+](=O)[O-])c2)c(C)c1	0	-2	-1.0	2014	4	-6	55
CN(C)/C=N/c1ncc(C(=O)c2ccc(Cl)cc2)s1	-29	5	/	22056*	/	/	/
CCN(CCCNC(=O)c1ccc(N2CCCC2=O)cc1)c1cccc(C)c1	-22	7	3.6	5370	/	/	2
O=C(Cc1ccc(Br)cc1)NN=Cc1ccc(-c2cccc(C(=O)O)c2)o1	/	/	3.7	/	13	-5	3
CSC1=NC(=O)/C(=C\c2cccc3ccccc23)S1	-31	/	0.7	3129	6	3	16
N/C(=N\OC(=O)Cc1ccccc1[N+](=O)[O-])c1cccc(Br)c1	5	3	/	5972	/	/	/
CC(=O)C1=C(C)OC(N)=C(C#N)C1c1cccc2ccccc12 (centres undefined)	-5	-6	4.2	3870	-9	1	16
CCCCn1c2c(c(=O)n(C)c1=O)C(c1ccc(OC)cc1)N1CCCCCC1=N2 (centres undefined)	-10	-7	-0.5	3290	9	1	0
CCOC(=O)C(=O)N1CCN(c2nc(-c3ccc(Cl)cc3)cs2)CC1	-12	-12	2.1	3881	-2	10	-3
O=C(c1ccc2c(c1)OCO2)N1CCN(S(=O)(=O)c2ccc(Br)cc2Cl)CC1	/	/	-2.9	/	4	2	2
CC(C)Cc1cc(CNC(=O)C2CCC(=O)N(CCc3cccc(F)c3)C2)on1 (centres undefined)	-15	2	4.1	5391	3	3	13
CC(=O)c1ccc(NS(=O)(=O)c2c(C)cc(C)cc2C)cc1	-20	1	/	3408	/	/	/
CC(=NNc1ncc(Br)cn1)c1ccc([N+](=O)[O-])cc1	/	/	5.0	/	6	-1	10
Cc1cc(N2CCOCC2)cc(C)[n+]1[O-]	-12	/	2.1	16435*	-1	5	3
O=C(N/N=C/c1coc2ccccc2c1=O)c1cc(Br)c(O)c(Br)c1	-14	0	/	6181	/	/	/
COc1ccc(NC(=O)/C(C#N)=C/c2ccc(OCc3ccccc3F)cc2)cc1	-48	4	/	2474	/	/	/
CN(C(=O)c1ccco1)c1nc(-c2ccc(F)cc2)cs1	-74	-6	15	3935	5	2	14
O=C(N/N=C\c1ccc[nH]1)C1COc2ccccc2O1 (centres undefined)	-22	3	/	?	/	/	/
Cc1cccc(CSc2nc3[nH]ncc3c(=O)[nH]2)c1	-21	5	3.7	1993	2	5	3
Cc1sc2nc(CN3CCOCC3)nc(Cl)c2c1C	-10	-3	4.3	2564	18	-1	8
O=C(OCCN1CCOCC1)C(c1ccccc1)c1ccccc1	3	-14	3.2	9336	7	-2	-5
COc1ccc(CCNC(=O)C2CC3Cn4c(nc5ccccc54)C3N2C)cc1 (centres undefined)	-18	-2	6.2	2913	2	0	3
CC1(C)CC(=O)c2cc3c(nc2C1)CC(C)(C)CC3=O	-4	-7	3.4	2148	-12	3	0
O=C(CCS(=O)(=O)c1ccc(F)cc1)Nc1nnc(-c2ccc(F)cc2)o1	-23	1	-1.6	6403	13	13	0
CCn1ncc([N+](=O)[O-])c1C(=O)NC1CCCCC1	-11	5	1.5	1975	2	-5	8
CCN(CC)C(=O)c1[nH]cnc1C(=O)NC(Cc1ccccc1)C(=O)OC(C)(C)C (centres undefined)	/	/	5.4	/	8	15	5
COc1cccc(CNCCc2c[nH]c3ccccc23)c1OCc1ccc(F)cc1	1	9	-3.9	2464	-3	2	-28
COc1ccccc1N1C(=O)S/C(=C\c2ccc(C)s2)C1=O	-59	5	2.4	/	4	-2	14
Cc1ccc(-n2ncc3c(NCCCn4ccnc4)ncnc32)c(C)c1	-20	3	1.5	5273	15	10	10
CC(OC(=O)CCCC(=O)Nc1ccccc1)C(=O)c1ccccc1 (centres undefined)	-22	-8	-0.4	3390	-10	-11	-1
COc1cc(OC)c(OC)cc1C=NNc1ncnc2c1[nH]c1ccc(C)cc12	/	/	6.1	/	5	9	20
O=C(CN1C(=O)C(=O)N(C2CCCC2)C1=O)Nc1ccc(Cl)cc1C(F)(F)F	-17	/	3.0	3781	3	7	2
Cc1c(OC(C(=O)O)c2ccccc2)ccc2c(-c3ccccc3)cc(=O)oc12 (centres undefined)	-24	2	-3.4	/	0	13	-10
O=C(N/N=C\CCc1ccccc1)c1ccco1	-9	-6	/	2400	/	/	/
O=C(CN1CCN(C(=O)c2c(F)cccc2F)CC1)Nc1ccccc1F	-13	/	1.0	3626	/	/	-4
COc1cc(/C=C/[N+](=O)[O-])ccc1OC(=O)c1cc2ccccc2oc1=O	-17	20	0.5	/	-10	1	-11
Cc1ccc(S(=O)(=O)NC(C)(C)CN2CCNCC2)cc1	-25	5	/	5624	/	/	/
Cc1ccn(CCC(=O)NC2CCCc3c2cnn3-c2cccc(C)c2C)n1 (centres undefined)	-2	4	5.1	5635	6	3	8
COCc1cc(C)nc(SCC[N+](C)(C)CC(=O)Nc2cccc(C)c2)c1C#N	-16	3	13	3408	-3	-3	8
CC(=O)c1ccc(CCCCc2ccc(C(C)=O)cc2)cc1	-31	/	6.4	3594	20	14	2
CC1CCN(C(=O)CC(NC(=O)c2ccccc2Cl)c2ccccc2)CC1 (centres undefined)	-8	-12	2.2	4724	4	1	1
